2A firefly: Primary qHTS Assay for Foot and Mouth Disease Virus Antivirals against NCGC Sytravon and CBC Compound Libraries: Firefly Luciferase Signal; Potency, µM (titrated, usually from 57.5 µM), for the others: at the top dose signal change, negative = less light; HEK cells with a luciferase reporter of 2A StopGo recoding; 0.23% of 120,000 active; AID 1745856, 2022; active = well fitted falling curve with a large enough effect; inconclusive = small, poorly fitted or top-dose-only effect; inactive = no such curve, though single readings can be large or run the other way; note: nearly all actives have a fitted effect of over 60% in size; overnight with compound
2A Renilla: Primary qHTS Assay for Foot and Mouth Disease Virus Antivirals against NCGC Sytravon and CBC Compound Libraries: Renilla Luciferase Signal. HEK cells with a luciferase reporter of 2A StopGo recoding. Potency, µM (top dose mostly 57.5 µM), for the others: top-dose signal change, negative = less light. 0.32% of 120,000 active. AID 1745857, 2022; active means well fitted falling curve with a large enough effect; inconclusive means small, poorly fitted or top-dose-only effect; inactive means no such curve, though single readings can be large or run the other way; note: nearly all actives have a fitted effect of over 55% in size; overnight with compound
An asterisk follows results filed as active; u = inconclusive; [ ] = remark or other dose. % is set by controls: 0 for no effect and ±100 for the full control effect; potency is the fitted concentration of half-maximal effect. The list is partial, so the mix of outcomes need not match the whole.

SMILES	2A firefly	2A Renilla
COc1ccc(S(=O)(=O)Nc2nc3ccccc3nc2Nc2cccc(OC)c2)cc1	20%	103%[activator]
Brc1ccc(CNCCCn2ccnc2)cc1	0%	18%
CCSc1nc2c(c(=O)[nH]c(=O)n2C)n1Cc1ccccc1Cl	10%	-5%
CCOc1ccccc1NC(=O)C1CCN(S(=O)(=O)c2cccc3nonc23)CC1	2%	15%
CCC(C(=O)NCCc1cc(OC)ccc1OC)n1nc(C)c2sc3ccccc3c2c1=O (centres undefined)	-20%	-7%
Cc1ccc(-n2c3nc(=O)[nH]c(=O)c-3cc3c(Cl)cccc32)cc1	-11%	-14%
O=S(=O)(Cc1ccc(F)cc1Cl)CC(O)c1ccccc1 (centres undefined)	4%	15%
Cc1cc(Cl)ccc1OC(C)C(=O)Oc1ccc(-c2ccc(C#N)cc2)cc1 (centres undefined)	0%	0%
CN1CCN(C2(CNC(=O)c3ccc(C(C)(C)C)cc3)CCCCC2)CC1	-24%	-20%
CCc1cccc2c(C(=O)O)cc(-c3cc(C)ccc3C)nc12	4%	11%
O=C(CC(NCc1cccnc1)C(=O)O)Nc1ccc(F)cc1 (centres undefined)	-17%	-4%
COC(=O)c1[nH]c2cc(OC)ccc2c1NC(=O)CN1CCCC(C)(C)C1	18%	180%[activator]
C=CCn1c(SCc2coc(-c3cccc(Cl)c3)n2)nnc1C1CCS(=O)(=O)C1 (centres undefined)	13%	-15%
Cn1nc(C(=O)Nc2ccnn2Cc2ccc(Cl)cc2)c2ccccc2c1=O	-24%	0%
O=C(Nc1ccc(F)cc1)C1CCCN(S(=O)(=O)c2ccc(N3CCCC3=O)cc2)C1 (centres undefined)	18%	6%
Cc1cc(C)cc(NC(=O)CN2C(=O)c3ccccc3Sc3ncccc32)c1	1%	-2%
CC1CCN(c2ncnc3c2c(-c2ccccc2)cn3-c2ccc(Br)cc2)CC1	-27%	-3%
COC(=O)c1sccc1S(=O)(=O)N(CC(=O)Nc1cccc(C)c1C)c1ccc(C)c(C)c1	-34%	112%[activator]
Cc1ccc(C)c(-n2c3c(cc(C#N)c2=O)C(=O)CC(c2ccccc2)C3)c1 (centres undefined)	-13%	-5%
Cc1oc2c(C)c3oc(=O)c(CCC(=O)N4CCCCC4)c(C)c3cc2c1C	16%	-10%
Cc1cc(=O)oc2c(C)c(OCC(=O)NCCN3CCOCC3)ccc12	-9%	1%
CCCCNC(=O)COC(=O)c1c(C)c(CC)nc2ccccc12	-6%	10%
O=C(NCCc1ccccc1)c1ccc2c(c1)N(Cc1ccc(F)cc1)C(=O)c1ccccc1S2	-9%	3%
Cc1ccc(C(=O)c2cc3c(cc2C#N)OCCO3)cc1	0%	18%
COc1cc(CNCCSc2nnnn2C)ccc1OCc1ccc(Cl)cc1Cl	64%[activator]	12%
Cc1ccc2c(C)nc(Nc3nccc(C)n3)nc2c1	134%[activator]	11%
COc1cc(C#N)ccc1OCc1cc(C)cc(C)c1	10%	0%
O=C(NCc1ccc(N2CCCC2)nc1)c1cc(Cl)ccc1O	31%[activator]	12%
Cc1ccc(CNC(=O)c2ccc3c(=O)n(-c4ccccc4)c(=O)[nH]c3c2)cc1	-21%	1%
CCN1CCN(c2cc3c(cc2F)c(=O)c(S(=O)(=O)c2cc(C)cc(C)c2)cn3CC)CC1	-14%	13%
CC(C)C(CNC(=O)Cc1n[nH]c(=O)c2ccccc12)N1CCOCC1 (centres undefined)	-4%	-1%
C=CC(=O)NC(NC(=O)C=C)c1ccccc1	16%	0%
CCCOc1c(Cl)cc(C(=O)Nc2ncccc2C)cc1OC	0%	24%
COc1ccc(C(O)(C2CCCCC2)C(CN2CCCCC2)c2ccccc2)cc1 (centres undefined)	18%	11%
CC(=O)Nc1ccc(NC(=O)CSc2nc(C3CC3)n(-c3ccccc3)n2)cc1	-19%	-13%
Cc1cc(C)c(C(=O)CSc2nnnn2C)cc1C	39%[activator]	2%
CCCCN1C(=O)C(C)=C(C)C1c1cn(C)c2ccccc12 (centres undefined)	5%	15%
O=C(Nc1cc(S(=O)(=O)N2CCCCC2)ccc1Oc1ccc(Cl)cc1)c1cnccn1	-11%	-4%
CCN(CC)S(=O)(=O)c1cc(C)c(C)c(NS(=O)(=O)/C=C/c2ccccc2)c1	6%	342%[activator]
CC(=O)c1cccc(NS(=O)(=O)c2ccc3c(c2)CC(C)N3C(C)=O)c1 (centres undefined)	u	11%
CCOc1ccc(CN2CCC(N(C)Cc3ccccc3)CC2)cc1	2%	-2%
CC(C(=O)Nc1cccc(Cl)c1Cl)N1CCN(c2ccccc2O)CC1 (centres undefined)	-16%	-5%
COc1ccc(CCNC(=O)CSc2nc(Cl)nc3nc[nH]c23)cc1	1%	-4%
COc1cccc(CNC(=O)c2nn(-c3ccc(C)cc3)c(=O)c3c2c2ccccc2n3C)c1	41%[activator]	-7%
CC1CCN(C(=O)CCSc2nc(-c3ccc4c(c3)OCO4)cc(C(F)(F)F)n2)CC1	6%	0%
N#Cc1ccccc1COC(=O)c1ccc(CO)cc1	18%	16%
CCOc1ccc2oc(C(=O)N3CCN(CC(=O)Nc4ccccc4CC)CC3)c(C)c2c1	7%	-6%
CCOc1ccc(C(=O)c2cn(CC(=O)Nc3ccc4c(c3)OCO4)c3ccc(OCC)cc3c2=O)cc1	-7%	-4%
COc1cccc(-c2nc(C#N)c(N3CCN(C(=O)c4ccccc4)CC3)o2)c1	30%	-3%
CCOC(=O)N1CCc2c(sc(NCc3ccc(OCC)cc3)c2C(=O)Nc2ccc(OC)cc2OC)C1	25µM*	24%
CCOc1cc(C(=O)N2N=C(C)CC2(O)C(F)(F)F)cc(OCC)c1OCC (centres undefined)	18%	47%[activator]
Cc1sc(N2CCOCC2)nc1-c1ccc(NS(C)(=O)=O)cc1	18%	-4%
Cc1nc2ccc(S(=O)(=O)N(CC(=O)Nc3cccc(Cl)c3)Cc3ccccc3)cc2s1	-8%	38%[activator]
CCN(CC(=O)Nc1ccccc1C(F)(F)F)C(=O)c1cc(=O)c2cc(C)ccc2o1	10%	4%
COc1cc(OC)c(OC)cc1CNCCSc1nnnn1-c1ccccc1	0%	-15%
CO[C@@]1(NC(=O)Cc2cccs2)C(=O)N2C(C(=O)O)=C(COC(N)=O)CS[C@@H]21	-1%[11.5 µM]	-6%
CN(C)CCCN(Cc1ccc(Cl)c(Cl)c1)C(=O)/C=C/c1ccncc1	8%	-15%
COc1cccc(-c2nc(-c3cc4cccc(C)c4nc3OC)no2)c1	-9%	-17%
CCc1c(C)nc(SCC(=O)Nc2oncc2-c2ccccc2)[nH]c1=O	6%	5%
CSc1nc2c(sc3ccccc32)c(=O)n1Cc1ccc(C)cc1	-12%	-3%
Later entries:
SMILES	2A firefly	2A Renilla
COc1cc(-c2cc(C(=O)O)c3ccccc3n2)ccc1O	0%	2%
COc1ccc(/C=C/C(=O)Nc2ccc(Cl)cc2Cl)cc1	33%[activator]	-6%
CCOC(=O)C1=CN(Cc2ccc(F)cc2)C=C(C(=O)OCC)C1c1ccc(O)cc1	-6%	-1%
CCOc1ccc(OCC)c(NC(=O)c2nnn(CC(=O)Nc3cc(Cl)ccc3OC)c2N)c1	-21%	-10%
C=CCn1c(Oc2ccc(OC)cc2)nc2c1c(=O)n(C)c(=O)n2C	4%	-8%
O=C(NCCn1c(-c2ccc(F)cc2)nc2ccccc21)Nc1cc(F)ccc1F	-7%	-10%
CCCCN(CCCC)C(=O)Cn1cnc2c1c(=O)n(C)c(=O)n2C	24%	18%
COc1ccc(N(Cc2cccs2)C(=O)c2ccco2)cc1	-14%	17%
O=C(Nc1ccc(F)c(Cl)c1)c1ccccc1OCC1CCCO1 (centres undefined)	13%	7%
O=C(NCC1CCN(CC(F)(F)F)C1)c1ccc2ccccc2c1 (centres undefined)	42%[activator]	10%
COc1ccc(CNC(=O)c2cccc(OC)c2)cc1	67%[activator]	19%
COc1ccccc1N1CCN(S(=O)(=O)c2c(C)sc3ncn(CC(=O)NCCN(C)C)c(=O)c23)CC1	-12%	-16%
CCN(CC)c1ccc(-c2nnc(SCCS(=O)(=O)c3ccccc3)o2)cc1	5%	-8%
O=C(CSc1ncnc2c1cnn2-c1ccccc1)NC(=O)NC1CCCC1	0%	1%
Cc1nccn1-c1ccc(C#N)cc1	9%	6%
CC1CCN(c2nc(SCCO)c(C#N)c3c2CCCC3)CC1	-23%	-21%
Cc1nn(-c2ncnc3nc[nH]c23)c2c1C(c1cccc(F)c1)CC(=O)N2 (centres undefined)	9%	10%
Cc1c(C(=O)N2CCCCC2)c(S(=O)(=O)NCc2ccc(N(C)C)cc2)c(C)n1C	-11%	22%
Cc1cc(C)c(S(=O)(=O)NCC(c2cccs2)S(=O)(=O)c2ccccc2)c(C)c1 (centres undefined)	-24%	115%[activator]
Cc1nnc(N2CCN(C(=O)NC(C)C)CC2)c2nn(-c3ccccc3)c(C)c12	3%	21%
COc1ccc(OC)c(NC(=O)c2c(NCc3ccc(C)o3)sc3c2CCCCC3)c1	-22%	-4%
Cc1ccc(Nc2c(-c3ccc(C)s3)nc3ccccn23)cc1	229%[activator]	6%
NNc1ccccc1Br	116%[activator]	-3%
Cc1coc2cc3oc(=O)c(CCC(=O)N4CCCCC4)c(C)c3cc12	160%[activator]	54%[activator]
NC(=O)c1ccsc1NC(=O)COC(=O)c1cccc(Cl)c1Cl	0%	0%
C/C=C/C(=O)OCc1nc2c(c(=O)[nH]c(=O)n2CCCC)n1CC	0%	-9%
COC(=O)c1ncoc1-c1ccccc1C(=O)NCc1ccc(Cl)cc1	-7%	-2%
COc1ccccc1Cc1nc2ccccc2nc1SCC(=O)N1CCCCC1	-8%	138%[activator]
O=c1oc2cc(O)ccc2cc1-c1nnc(Nc2cccc(Cl)c2)s1	4%	-1%
CCCn1c2ccccc2c2cnn(CC(=O)NCCCN3CCCCC3CC)c(=O)c21 (centres undefined)	-14%	-8%
COc1cc([C@@H]2Nc3c(F)cccc3[C@@H]3C=CC[C@@H]32)cc(Br)c1OC	-6%	-10%
CC1CCN(S(=O)(=O)c2ccc3c(c2)N(CC(=O)NCCCN2CCCCC2C)C(=O)CS3)CC1 (centres undefined)	-9%	-2%
CCC1c2ccsc2CCN1C(=O)c1nn(C)c(=O)c2ccccc12 (centres undefined)	21%	15%
COc1ccc(NC(=O)Cn2ncc3c4ccccc4n(Cc4ccccc4)c3c2=O)cc1OC	-6%	-11%
CCCOc1ccc(C(=O)Nc2cc(-c3nc4ccccc4[nH]3)ccc2C)cc1	16%	-8%
CC1CCN(CC(=O)Nc2ccc(C#N)c(Cl)c2)CC1	16%	4%
Cc1ccc2nc(C)c(C(=O)N3CCC(CN(C)C(C)C)CC3)cc2c1	2%	4%
O=C(Nc1ccc(Cl)cc1)c1cnn2c1NC(c1ccccc1)=CC2c1ccccc1 (centres undefined)	-14%	3%
CCOC(=O)CNC(=O)NCc1cccn1Cc1c(C)cc(C)cc1C	1%	3%
CC(C)c1ccc(C(=O)O)cc1	7%	3%
O=C(Cn1nnnc1-c1ccc(Br)cc1)N1CCOCC1	0%	11%
CC(C)N1C(=O)C(Cc2nc3ccccc3c(=O)n2C)c2cc(Br)ccc21 (centres undefined)	5%	13%
COC(=O)c1cccnc1-n1c(=O)c2cccnc2n(CC(=O)Nc2ccc(C)cc2C)c1=O	-17%	-15%
CC(C)c1ccc(NC(=O)CCS(=O)(=O)c2ccc3c(c2)CC(=O)N3C)cc1	u	u

Filtered by structure: the entries above containing an aryl thioether with sulfur outside any ring (14)
SMILES	2A firefly	2A Renilla
CCSc1nc2c(c(=O)[nH]c(=O)n2C)n1Cc1ccccc1Cl	10%	-5%
C=CCn1c(SCc2coc(-c3cccc(Cl)c3)n2)nnc1C1CCS(=O)(=O)C1 (centres undefined)	13%	-15%
COc1cc(CNCCSc2nnnn2C)ccc1OCc1ccc(Cl)cc1Cl	64%[activator]	12%
CC(=O)Nc1ccc(NC(=O)CSc2nc(C3CC3)n(-c3ccccc3)n2)cc1	-19%	-13%
Cc1cc(C)c(C(=O)CSc2nnnn2C)cc1C	39%[activator]	2%
COc1ccc(CCNC(=O)CSc2nc(Cl)nc3nc[nH]c23)cc1	1%	-4%
CC1CCN(C(=O)CCSc2nc(-c3ccc4c(c3)OCO4)cc(C(F)(F)F)n2)CC1	6%	0%
COc1cc(OC)c(OC)cc1CNCCSc1nnnn1-c1ccccc1	0%	-15%
CCc1c(C)nc(SCC(=O)Nc2oncc2-c2ccccc2)[nH]c1=O	6%	5%
CSc1nc2c(sc3ccccc32)c(=O)n1Cc1ccc(C)cc1	-12%	-3%
CCN(CC)c1ccc(-c2nnc(SCCS(=O)(=O)c3ccccc3)o2)cc1	5%	-8%
O=C(CSc1ncnc2c1cnn2-c1ccccc1)NC(=O)NC1CCCC1	0%	1%
CC1CCN(c2nc(SCCO)c(C#N)c3c2CCCC3)CC1	-23%	-21%
COc1ccccc1Cc1nc2ccccc2nc1SCC(=O)N1CCCCC1	-8%	138%[activator]

From PubChem
